Bioassay records (PubChem BioAssay)
TRPV1 PAM: HTS Assay for Compounds that Act as Potentiators of the Vanilloid Receptor 1; Transient receptor potential cation channel subfamily V member 1 (Homo sapiens), Q8NER1; TRPV1-expressing cells, Fluo-8 calcium influx, capsaicin EC20 potentiation; host cell line not named in the record; control for the full effect not named in the record; potentiation, % at 8.33 µM; hit rate 0.02% among 320,000; AID 540277, 2011; active means potentiation above 80%; inconclusive means 30% to 80%; inactive means below 30%; note: 0% is about no effect
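Cells expressing TRPV1 were dye-loaded with Fluo-8 and read kinetically: 10 s baseline, 3 min after compound (agonist portion), then 2 min after EC20 capsaicin (allosteric enhancer portion). Calcium-bound dye fluorescence at 480/520 nm.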
Six1-Eya2 inh: qHTS Assay for Inhibitors of the Six1/Eya2 Interaction | Homeobox protein SIX1 (Homo sapiens) + Protein phosphatase EYA2 (Homo sapiens), … | AlphaScreen GST-Six1/His-Eya2 binding, biochemical; active compounds read low; control for the full effect not named in the record | activity change, % (no concentration beside the values) | hit rate 0.56% among 360,000 | AID 651725, 2012; in the data active = activity change below about -65%; inconclusive = about -30% to -65%; inactive = above about -30%; note: % is set by controls: 0 for no effect and ±100 for the full control effect
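Compounds are tested against tagged Six1 and Eya2 proteins bridged by glutathione donor and nickel acceptor beads; after a one-hour incubation at 37 °C without light, AlphaScreen emission is recorded.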
TRPML1 ag: qHTS for Agonists of the Human Mucolipin Transient Receptor Potential 1 (TRPML1). Mucolipin-1 (Homo sapiens), Q9GZU1. TRPML1-expressing cells, Ca2+ dye fluorescence, FDSS; host cell line not named in the record; reference of the full effect not given here. hit rate 0.12% among 410,000. activation, % (no concentration beside the values); in the data active = activation above about 50%; inconclusive = about 30% to 50%; inactive = below about 30%; note: 0% is about no effect; the text of the record puts the active cut at 80%
Target sequence (Q9GZU1 whole entry, looked up): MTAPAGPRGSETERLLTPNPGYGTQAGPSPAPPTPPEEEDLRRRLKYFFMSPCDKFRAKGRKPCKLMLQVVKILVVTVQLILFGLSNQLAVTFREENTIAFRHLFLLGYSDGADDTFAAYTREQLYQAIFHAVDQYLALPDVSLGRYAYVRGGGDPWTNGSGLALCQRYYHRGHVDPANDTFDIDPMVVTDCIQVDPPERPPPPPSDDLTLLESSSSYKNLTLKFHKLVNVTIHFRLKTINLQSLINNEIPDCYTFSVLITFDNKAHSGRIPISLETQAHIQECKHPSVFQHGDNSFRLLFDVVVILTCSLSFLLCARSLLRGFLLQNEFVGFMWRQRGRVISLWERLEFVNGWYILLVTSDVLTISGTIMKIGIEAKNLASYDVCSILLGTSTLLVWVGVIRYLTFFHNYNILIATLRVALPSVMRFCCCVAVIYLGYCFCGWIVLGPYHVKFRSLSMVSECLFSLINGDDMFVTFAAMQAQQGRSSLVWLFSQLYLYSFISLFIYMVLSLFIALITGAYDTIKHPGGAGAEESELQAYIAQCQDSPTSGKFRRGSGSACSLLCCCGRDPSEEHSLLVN
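Kinetic FDSS Ca2+ read in Tet-induced TRPML1-DL cells (ABD Ca8 dye plus quencher, 45-90 min RT loading): baseline, then compound, then 110 s agonist window; EC80 agonist 54-4 at 4uM final added afterwards for a 110 s antagonist window.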
CtBP-E1A inh: qHTS Assay for Inhibitors of the CtBP/E1A Interaction; CtBP / adenovirus E1A interaction (AlphaScreen); AlphaScreen GST-E1A/His-CtBP binding, 1536-well; active compounds read low; control for the full effect not named in the record; activity change, % (no concentration beside the values); hit rate 0.49% among 340,000; in the data active means activity change below about -65%; inconclusive means about -30% to -65%; inactive means above about -30%; note: % is set by controls: 0 for no effect and ±100 for the full control effect
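In 5 uL wells, 23 nL compound meets equimolar GST-E1A and His-CtBP (5X stock 125 nM each) for 2 h, 37 °C. Beads (5X, 50 ug/mL) then 1 h, 37 °C, dark.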
TRPML1 blocker: qHTS for Inhibitors of the Human Mucolipin Transient Receptor Potential 1 (TRPML1) | activity change, negative = inhibition, % (test concentration not listed) | TRPML1-inducible cells, Ca2+ dye fluorescence, FDSS; active compounds read low; inhibition of EC80 agonist-evoked calcium signal | hit rate 0.02% among 390,000; in the data active means activity change below about -50%; inconclusive means about -30% to -50%; inactive means above about -30%;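 note: stimulus is agonist 54-4 at its EC80 concentration; % is set by controls: 0 for no effect and ±100 for the full control effect; compound concentration not given in the record; the text of the record puts the active cut at -80%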
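TRPML1-DL cells, Tet-induced overnight (~16 h, 37 °C) at 1,500 cells/well, were loaded with Ca8 no-wash dye plus quencher for 45-90 min at room temperature. Compounds were pinned during FDSS kinetic reading; agonist 54-4 at EC80 (4 uM final) then added.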
D2 potentiator: Beta-Arrestin HTS for Positive Allosteric Modulators of the Human D2 Dopamine Receptor: Potentiators | D(2) dopamine receptor (Homo sapiens), P14416 | DiscoveRx D2 beta-arrestin cells, luminescence, 90 min; 100% = 57 uM dopamine signal | potentiation, % (concentration not given with the values) | hit rate 0.23% among 360,000 | AID 624464, 2012; active = potentiation of 50% or more; inconclusive = 30% to 50%; inactive = 30% or less;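 note: compound concentration not given in the record; tested on top of an EC20 dose of dopamine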
Target sequence (P14416 whole entry, looked up): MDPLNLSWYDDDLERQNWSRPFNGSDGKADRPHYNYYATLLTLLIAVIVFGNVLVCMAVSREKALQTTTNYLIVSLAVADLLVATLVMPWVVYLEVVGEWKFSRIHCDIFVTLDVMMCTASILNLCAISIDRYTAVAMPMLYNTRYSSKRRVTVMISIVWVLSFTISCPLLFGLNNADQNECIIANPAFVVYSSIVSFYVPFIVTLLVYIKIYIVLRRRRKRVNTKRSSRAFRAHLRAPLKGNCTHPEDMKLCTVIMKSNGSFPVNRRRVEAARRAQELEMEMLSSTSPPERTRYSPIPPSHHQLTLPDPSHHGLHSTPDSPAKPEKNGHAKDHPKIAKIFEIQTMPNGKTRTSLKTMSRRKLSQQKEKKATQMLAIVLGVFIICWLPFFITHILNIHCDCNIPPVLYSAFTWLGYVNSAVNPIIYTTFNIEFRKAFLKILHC
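PathHunter D2 cells, attached overnight at 37 deg C, received compound in DMSO plus dopamine at EC20 (50 nM final) for 90 min at 37 deg C. Beta-arrestin recruitment was read as luminescence after 1 h with detection reagent at ambient temperature.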
Starred values were filed as active, the others as inactive; & = joins results of further samples.

Screening CC(=O)Nc1ccc(NC(=O)C2(C)CC2(Cl)Cl)cc1 (stereo unspecified) returned TRPV1 PAM -10, Six1-Eya2 inh 1, TRPML1 ag -0.9, CtBP-E1A inh 1, TRPML1 blocker 11 and D2 potentiator -9.
Screening O=C(O)c1ccc(-c2nc(-c3ccccc3Cl)cs2)cc1 returned TRPV1 PAM -2, Six1-Eya2 inh 2, TRPML1 ag 0.3, CtBP-E1A inh 2, TRPML1 blocker -9 and D2 potentiator 1.
For CCOc1cc(C2CC(=O)N3CN(C4CCCCC4)CSC3=C2C#N)ccc1O (stereo unspecified) the results were TRPV1 PAM -7, Six1-Eya2 inh 6, TRPML1 ag -0.6&0.2, CtBP-E1A inh -6, TRPML1 blocker 8 and D2 potentiator -5.
`CC(/C=N/NC(=O)c1cc(-c2ccc(C)o2)[nH]n1)=C\c1ccccc1` gave TRPV1 PAM 10, Six1-Eya2 inh 6, TRPML1 ag 1.1, TRPML1 blocker 2 and D2 potentiator -13.
`CC1(CC(=O)N/N=C/c2ccc(-c3ccc(C(=O)O)cc3)o2)OCCO1` gave TRPV1 PAM 15, Six1-Eya2 inh -1, TRPML1 ag -0.2, CtBP-E1A inh 7, TRPML1 blocker 23 and D2 potentiator 8.
CC(C)Cn1c(SCC(=O)N(C)C2CCS(=O)(=O)C2)nc2cc(Cl)ccc2c1=O (stereo unspecified) was read as TRPV1 PAM -11, Six1-Eya2 inh -6, TRPML1 ag 1.2, CtBP-E1A inh -16, TRPML1 blocker -14 and D2 potentiator 10.
For Cc1ccc(-n2c(SCc3ccc(C(=O)O)cc3)nnc2-c2ccncc2)cc1 the results were TRPV1 PAM 5, Six1-Eya2 inh 3, TRPML1 ag 1.2, CtBP-E1A inh -1, TRPML1 blocker 10 and D2 potentiator -1.
`O=C(CCNC(=O)N1CC(=O)Nc2ccccc21)Nc1ccc(Cl)cc1` gave TRPV1 PAM -2, Six1-Eya2 inh 4, TRPML1 ag -0.2, CtBP-E1A inh -13, TRPML1 blocker 6 and D2 potentiator -21.
For O=C(O)C1CCCN1c1ncnc2ccccc12 (stereo unspecified) the results were TRPV1 PAM -5, Six1-Eya2 inh 1, TRPML1 ag 0.7, CtBP-E1A inh 10, TRPML1 blocker 13 and D2 potentiator -23.
For COc1ccc(CC(NC(C)=O)C(=O)NC2CCN(C(=O)c3cccc(Cl)c3)CC2)cc1OC (stereo unspecified) the results were TRPV1 PAM 6, Six1-Eya2 inh 2, TRPML1 ag 0.4, CtBP-E1A inh 3, TRPML1 blocker 18 and D2 potentiator 3.
For C[C@H](CO)N1C[C@H](C)[C@@H](CN(C)C(=O)NC2CCCCC2)Oc2c(NS(=O)(=O)c3ccccc3)cccc2C1=O the results were Six1-Eya2 inh 27, TRPML1 ag -0.5, CtBP-E1A inh 0, TRPML1 blocker -2 and D2 potentiator -5.
Screening COc1ccc(C(=O)N/C(=C\c2cn(C)c3ccccc23)C(=O)NCCCN2CCOCC2)cc1OC returned TRPV1 PAM 8, Six1-Eya2 inh -4, TRPML1 ag -0.6, CtBP-E1A inh -7, TRPML1 blocker -14 and D2 potentiator -12.

Structures listed so far containing a furan ring, fused or not, in the order listed:
`CC(/C=N/NC(=O)c1cc(-c2ccc(C)o2)[nH]n1)=C\c1ccccc1` gave TRPV1 PAM 10, Six1-Eya2 inh 6, TRPML1 ag 1.1, TRPML1 blocker 2 and D2 potentiator -13.
`CC1(CC(=O)N/N=C/c2ccc(-c3ccc(C(=O)O)cc3)o2)OCCO1` gave TRPV1 PAM 15, Six1-Eya2 inh -1, TRPML1 ag -0.2, CtBP-E1A inh 7, TRPML1 blocker 23 and D2 potentiator 8.

Next section:
`CCCC(=O)Nc1cc(S(=O)(=O)N2CCCCC2)ccc1N1CCOCC1` gave TRPV1 PAM 20, Six1-Eya2 inh 3, TRPML1 ag 0.4, TRPML1 blocker 24 and D2 potentiator 7.
`O=C1c2cccnc2C(Nc2ccc(Cl)cc2)N1Cc1cccs1` (stereo unspecified) gave TRPV1 PAM -21, Six1-Eya2 inh 3, TRPML1 ag 1.2, CtBP-E1A inh 4, TRPML1 blocker 27 and D2 potentiator -19.
For O=C(NC1CCN(c2ncccn2)CC1)c1ccccc1Cl the results were TRPV1 PAM 1, Six1-Eya2 inh 3, TRPML1 ag -0.7, TRPML1 blocker -3 and D2 potentiator -5.
For CC(C)c1ccccc1NC(=O)COC(=O)c1cc([N+](=O)[O-])ccc1N1CCOCC1 the results were TRPV1 PAM 7, Six1-Eya2 inh -8, TRPML1 ag -0.7, CtBP-E1A inh -17, TRPML1 blocker 14 and D2 potentiator -23.
Cn1nnc2cc(C(=O)NC(C)(C)C)ccc21 was read as TRPV1 PAM 4, Six1-Eya2 inh -2, TRPML1 ag -0.1, CtBP-E1A inh 8, TRPML1 blocker 41 and D2 potentiator -6.
COC(=O)[C@]12CCCCC=C1N(Cc1ccc(Cl)cc1Cl)C(=O)[C@H](CC(=O)NCc1ccc(C)o1)C2 was read as Six1-Eya2 inh -13, TRPML1 ag -0.6 and CtBP-E1A inh -12.
`COc1cc(OC)c(NS(=O)(=O)c2cc(C(=O)OC(C)C(=O)NC3CC3)c(Cl)cc2Cl)cc1Cl` (stereo unspecified) gave TRPV1 PAM 6, Six1-Eya2 inh -9, TRPML1 ag -0.3, CtBP-E1A inh -12, TRPML1 blocker 3 and D2 potentiator -22.
Cc1cccc(N(C(=O)C(F)(F)F)C(C(=O)NC2CCCCC2)c2cccs2)c1 (stereo unspecified) was read as Six1-Eya2 inh -3, TRPML1 ag 0.4, CtBP-E1A inh -20, TRPML1 blocker 9 and D2 potentiator -27.
For Cc1ccc(S(=O)(=O)N2CCCCC2C(=O)Nc2ccc(N(C)C)cc2)cc1 (stereo unspecified) the results were Six1-Eya2 inh inconclusive, TRPML1 ag -0.7, CtBP-E1A inh -25, TRPML1 blocker -4 and D2 potentiator -8.
Screening CCN(Cc1ccccc1)C(=O)C(=O)c1cn(CC(=O)N2CCCC2)c2ccccc12 returned TRPV1 PAM 0, Six1-Eya2 inh -4, TRPML1 ag 0.0, CtBP-E1A inh -10, TRPML1 blocker 8 and D2 potentiator -3.
For COc1cc(OC)cc(C(=O)NNC(=O)CCNC(=O)c2ccc(Br)cc2)c1 the results were Six1-Eya2 inh 3, TRPML1 ag 2.8, CtBP-E1A inh 3, TRPML1 blocker 5 and D2 potentiator -2.
`O=C(Nc1nc2c(s1)CCCC2)Oc1ccccc1` gave TRPV1 PAM -23, Six1-Eya2 inh -3, TRPML1 ag -1.2, CtBP-E1A inh -4, TRPML1 blocker -1 and D2 potentiator -2.

An excerpt from above in order of number of heavy atoms, high to low:
COC(=O)[C@]12CCCCC=C1N(Cc1ccc(Cl)cc1Cl)C(=O)[C@H](CC(=O)NCc1ccc(C)o1)C2 was read as Six1-Eya2 inh -13, TRPML1 ag -0.6 and CtBP-E1A inh -12.
For Cc1ccc(S(=O)(=O)N2CCCCC2C(=O)Nc2ccc(N(C)C)cc2)cc1 (stereo unspecified) the results were Six1-Eya2 inh inconclusive, TRPML1 ag -0.7, CtBP-E1A inh -25, TRPML1 blocker -4 and D2 potentiator -8.
`O=C(Nc1nc2c(s1)CCCC2)Oc1ccccc1` gave TRPV1 PAM -23, Six1-Eya2 inh -3, TRPML1 ag -1.2, CtBP-E1A inh -4, TRPML1 blocker -1 and D2 potentiator -2.

The list continues:
Cc1ccc(N2C(=S)N=C(Nc3ccccc3C)C23CCOC(C)(C)C3)cc1 (stereo unspecified) was read as TRPV1 PAM -3, Six1-Eya2 inh 2, TRPML1 ag 23, CtBP-E1A inh 13, TRPML1 blocker 5 and D2 potentiator -9.
`COc1ccc(N(CC(=O)Nc2ccc(C(N)=O)cc2)S(=O)(=O)c2ccc(C)c([N+](=O)[O-])c2)cc1` gave TRPV1 PAM -13, Six1-Eya2 inh 1, TRPML1 ag 2.0, TRPML1 blocker 5 and D2 potentiator -3.
For CCOc1ccc(NC(=O)C2CCCN2C(=O)OCc2ccccc2)cc1 (stereo unspecified) the results were TRPV1 PAM -18, Six1-Eya2 inh -3, TRPML1 ag 0.1, CtBP-E1A inh 11, TRPML1 blocker -8 and D2 potentiator 2.
For COc1ccc(N(CC(=O)NCCSc2ccccn2)S(=O)(=O)c2ccc(C)cc2)cc1OC the results were TRPV1 PAM 11, Six1-Eya2 inh -2, TRPML1 ag -0.3, CtBP-E1A inh -4, TRPML1 blocker -7 and D2 potentiator -10.
For Cc1cc(C)nc(/N=C(\N)C2=C(O)CC(C)(C)CC2=O)n1 the results were TRPV1 PAM -16, Six1-Eya2 inh 0, TRPML1 ag -0.2, CtBP-E1A inh -1, TRPML1 blocker 6 and D2 potentiator 4.
For CN1CCN(C(=O)/C(=C/c2ccco2)NC(=O)c2ccccc2)CC1 the results were TRPV1 PAM -10, Six1-Eya2 inh 33, TRPML1 ag 0.2, CtBP-E1A inh 0, TRPML1 blocker -4 and D2 potentiator -9.
CCC(c1nnnn1-c1ccc2c(c1)OCCO2)N1CCN(c2ccccc2)CC1 (stereo unspecified) was read as Six1-Eya2 inh -22, TRPML1 ag -1.1 and CtBP-E1A inh -13.
`CC(C)(C)NC(=O)CN(C(=O)CS(=O)CC(=O)Nc1ccc(F)cc1)c1ccc(Cl)cc1` (stereo unspecified) gave TRPV1 PAM -3, Six1-Eya2 inh 2, TRPML1 ag -0.2, CtBP-E1A inh -1, TRPML1 blocker -7 and D2 potentiator -10.
Screening CCC(CC)NC(=O)COc1ccc(OC)cc1C=O returned TRPV1 PAM -2, Six1-Eya2 inh 12, TRPML1 ag -0.4, CtBP-E1A inh -10, TRPML1 blocker 10 and D2 potentiator 1.
O=C(/C=C/c1ccc2c(c1)OCO2)N1CCOCC1 was read as TRPV1 PAM -9, Six1-Eya2 inh -1, TRPML1 ag -0.4, CtBP-E1A inh 2, TRPML1 blocker 5 and D2 potentiator -12.
Screening CCN1CCN(C(=O)C2COc3ccccc3O2)CC1 (stereo unspecified) returned TRPV1 PAM 6, Six1-Eya2 inh 3, TRPML1 ag -0.3, CtBP-E1A inh -2, TRPML1 blocker 5 and D2 potentiator -16.
CCOC(=O)c1[nH]c(C)c(C(=O)NC2CCCCC2)c1C was read as TRPV1 PAM inconclusive, Six1-Eya2 inh 0, TRPML1 ag -0.1, CtBP-E1A inh 2, TRPML1 blocker 9 and D2 potentiator 1.
For O=C(O)c1cc2c([nH]c1=O)CCCC2 the results were TRPV1 PAM -1, Six1-Eya2 inh 5, TRPML1 ag -0.4, CtBP-E1A inh 6, TRPML1 blocker 3 and D2 potentiator -5.
